Hck Nef HTS – inhibitors of Nef-activated human Hck kinase, primary screen, biochemical, Z-Lyte FRET, 384-well, Hck-YEEI | Tyrosine-protein kinase HCK (Homo sapiens), P08631 | Recombinant Hck-YEEI plus Nef, Z-Lyte FRET kinase assay | inhibition, % at 20 µM | 0.68% of 220,000 active;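 active = Hck-Nef kinase inhibition above about 50%, limit read from the data; inactive = inhibition below that limit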;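 also: 0% = DMSO with Hck plus Nef and 100% = Hck alone without Nef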
Wee1 stabilizer – Wee1 degradation inhibitors, primary screen, cell-based, HeLa, Wee1K328M-luciferase, luminescence; Wee1-like protein kinase (Homo sapiens), P30291; HeLa Luc-Wee1K328M stability; 100% = proteasome inhibitor MG132 effect; reporter increase, % at 5 µM; 1.2% of 220,000 active; AID 1321, 2008;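 active = activation above the mean of all tested compounds plus 3 SD, set per screening run, cut at about 8.8% in these data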;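 also: cells exposed to compound for 20 h before luminescence read; 0% = DMSO alone and 100% = MG132 at 30 µM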
KLK5 inh – human KLK5 protease inhibitors, primary screen, biochemical, 1536-well; inhibition, % at 5 µM; 0.59% of 210,000 active; AID 873, 2007; recombinant hK5, fluorogenic AMC substrate cleavage;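 active = inhibition of 40% or more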;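 also: 0% = enzyme controls without compound and 100% = no-enzyme blanks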
Target sequence (Q9Y337 67-293 limits assumed): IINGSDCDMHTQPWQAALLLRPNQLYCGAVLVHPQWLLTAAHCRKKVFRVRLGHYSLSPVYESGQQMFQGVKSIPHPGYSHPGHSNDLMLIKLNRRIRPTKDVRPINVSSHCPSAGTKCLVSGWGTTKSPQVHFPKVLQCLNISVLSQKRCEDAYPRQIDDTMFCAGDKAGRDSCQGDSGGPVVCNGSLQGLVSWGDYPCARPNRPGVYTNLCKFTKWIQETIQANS
Runt-SMMHC FRET – inhibitors of RUNX1 Runt–CBFb-SMMHC binding, primary screen, biochemical, FRET, Cerulean-Runt, Venus-CBFb-SMMHC, uHTS; Cerulean-Runt/Venus-CBFb-SMMHC FRET ratio 530/480, 1 h; Runt-related transcription factor 1 (Homo sapiens) + Core-binding factor subunit beta …; 0.74% of 220,000 active; AID 1434, 2008; inhibition, % at 20 µM;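 active = mean inhibition across duplicate retests at 20 µM reaching about 50%, limit read from the data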;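 also: 0% = DMSO wells and 100% = wells with excess untagged CBFb-SMMHC; inhibitors lower the FRET ratio by blocking Runt binding to CBFb-SMMHC; some results filed as inactive read as strong as hits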
Target sequence (Q01196 whole entry, looked up): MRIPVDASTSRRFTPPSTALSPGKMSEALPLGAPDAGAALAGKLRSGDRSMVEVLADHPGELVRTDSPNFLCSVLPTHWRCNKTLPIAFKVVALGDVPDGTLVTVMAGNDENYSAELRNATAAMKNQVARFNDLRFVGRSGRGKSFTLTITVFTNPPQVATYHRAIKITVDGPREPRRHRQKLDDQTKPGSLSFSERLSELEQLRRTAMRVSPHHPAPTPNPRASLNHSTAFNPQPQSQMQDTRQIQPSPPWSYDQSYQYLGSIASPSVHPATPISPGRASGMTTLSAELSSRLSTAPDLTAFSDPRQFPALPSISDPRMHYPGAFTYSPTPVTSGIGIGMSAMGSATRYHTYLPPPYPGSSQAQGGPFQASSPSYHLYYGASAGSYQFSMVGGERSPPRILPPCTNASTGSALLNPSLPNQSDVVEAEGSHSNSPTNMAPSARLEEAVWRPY
Target sequence (Q13951 whole entry, looked up): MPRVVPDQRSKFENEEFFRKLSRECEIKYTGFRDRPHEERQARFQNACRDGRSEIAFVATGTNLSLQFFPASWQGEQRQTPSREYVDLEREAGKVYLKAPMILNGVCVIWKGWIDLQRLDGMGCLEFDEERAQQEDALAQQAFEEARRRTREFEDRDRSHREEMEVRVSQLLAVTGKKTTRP
14-3-3 Bad PPI – inhibitors of 14-3-3 zeta/Bad binding, primary screen, biochemical, TR-FRET, bovine 14-3-3 zeta. inhibition, % at 21.7 µM. TR-FRET 14-3-3zeta/Dy647-pBad peptide displacement, 1 h. 0.71% of 220,000 active. 14-3-3 protein zeta/delta (Bos taurus), P63103;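 active = inhibition above about 70%, limit read from the data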;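 also: 0% = full 14-3-3 plus peptide FRET controls and 100% = background without 14-3-3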
Thrombin inh – human alpha-thrombin inhibitors, primary screen, counter-screen for coagulation protease inhibitor project, biochemical, 1536-well, fluorogenic AMC substrate. Prothrombin (Homo sapiens), P00734. Boc-VPR-AMC fluorogenic substrate cleavage. inhibition, % at 5 µM. 0.26% of 220,000 active;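 active = inhibition at or above 40%; inactive = inhibition below 40%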;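 also: 0% = enzyme with no compound and 100% = wells without enzyme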
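Test system: human alpha-thrombin; medium: pH 7.5 Tris-saline with Tween 20; times: reaction at room temperature; signal: AMC fluorescence at 355 nm excitation and 460 nm emission; also added: Boc-VPR-AMC substrate, 15 µM final; dosing: one concentration per compound, 5 µM, with 0.2% DMSO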
Runt-CBFb FRET – inhibitors of RUNX1 Runt–CBFb binding, primary screen, biochemical, FRET, Cerulean-Runt, Venus-CBFb, uHTS; Cerulean-Runt/Venus-CBFb FRET ratio 530/480, 1 h; 0.46% of 220,000 active; Runt-related transcription factor 1 (Homo sapiens) + Core-binding factor subunit beta …; inhibition, % at 20 µM;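 active = inhibition over about 50% at 20 µM in the single-dose screen, limit read from the data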;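 also: 0% = DMSO wells and 100% = excess unlabeled CBFb competitor control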
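Measured by: fluorescence energy transfer, 422 nm excitation, 530/480 nm emission; test system: Cerulean-tagged RUNX1 Runt domain (FRET donor) fusion protein; buffer or medium: Tris pH 7.5 buffer with BSA; compound: one dose, 20 µM compound, 1% DMSO; times: two 1 h room-temperature incubations shielded from light; benchmarks: unlabeled CBFb 5 µM, positive control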
* hit, by the source's call; / = no result given; [ ] = another dose, or the depositor's remark. Some of the compounds tested; the hit share may differ from the screen's.

SMILES	Hck Nef HTS	Wee1 stabilizer	KLK5 inh	Runt-SMMHC FRET	14-3-3 Bad PPI	Thrombin inh	Runt-CBFb FRET
CCn1c(COc2ccc(C)cc2)nnc1SCC(=O)NCc1ccco1	19	0	0	-2	-2	-7	-1
CC(=O)Nc1ccc2nc(NC(=O)CCc3ccccc3)sc2c1	18	-3	9	-2	-4	35	1
CC(/C=N/n1c(-c2cccnc2)n[nH]c1=S)=C\c1ccccc1	2	-2	2	10	11	1	/
CCOC(=O)c1cc(C(C)=O)c(=O)[nH]c1C	20	-1	23	-1	7	-1	2
c1ccc2c(c1)CCCN2Cc1nnc2n1CCCCC2	3	-2	2	-5	-16	1	-4
COc1ccc(S(=O)(=O)Nc2cc(C(=O)NCCCN3CCOCC3)ccc2N2CCOCC2)cc1	21	-1	-2	4	-14	-4	0
COc1cc(/C=C(/C#N)c2ccc(F)cc2)ccc1OCc1ccc(C(=O)O)o1	55*	-4	1	-2	2[fluorescence artefact?]	0	-2
C1=C(c2ccccc2)Nc2ccccc2N=C1c1ccccc1	0	2	6	0	6	18	-1
CCOC(=O)N1CCN(C(=O)CN(C2CCCCC2)S(C)(=O)=O)CC1	1	0	-1	0	-5	0	2
CCN(CC)CCCn1c(C)cc2c(c1=O)C(c1ccccc1)C(C#N)=C(N)O2 (stereo unspecified)	2	0	-23	1	-12[fluorescence artefact?]	0	/
CCCCn1nnnc1NCc1cccs1	4	-1	-37	2	-1	0	1
Cc1cccc(-c2nc3sc(C)cc3c(=O)o2)c1	26	4	9	3	-1	-8	-1
Cc1ccccc1NC(=O)COC(=O)c1cc(=O)c2ccccc2o1	9	3	-7	-57	-3	-26	1
CCOC(=O)c1cc(C(=O)NN)c(=O)[nH]c1C	17	0	-5	1	-7	-6	0
Cn1c(=O)c2c3c(sc2n2cnnc12)CCC3	0	3	-11	18	12	1	1
Cc1cc2oc(=O)c3c(c2cc1OC(=O)c1ccco1)CCCC3	17	-3	36	-4	6	18	-1
COc1ccc(OC)c(-n2c(-c3cccc(O)c3)n[nH]c2=S)c1	0	-2	-2	17	-8	-4	11
C=CCNC(=O)C1CC(c2cccc(OC)c2)=NO1 (stereo unspecified)	3	0	-15	1	0	2	1
CN(C)c1ccc(/C=N/n2c(COc3ccccc3)n[nH]c2=S)cc1	-2	1	-4	16	-1	-2	15
O=C(Nc1ccccc1)C1=C(O)CC(c2ccco2)CC1=Nc1ccccc1 (stereo unspecified)	2	-1	-16	-3	-20[fluorescence artefact?]	2	20
OC(COCCOc1ccc(Br)cc1)CN1CCCCC1 (stereo unspecified)	2	2	-9	-2	0[fluorescence artefact?]	-16	0
Nn1c(SCC(=O)Nc2ccc(S(N)(=O)=O)cc2)nnc1C(F)(F)F	10	0	1	-2	-8	0	-1
N#Cc1ccc(C2=NC(C(F)(F)F)(C(F)(F)F)c3c(n(Cc4ccco4)c(=O)[nH]c3=O)N2)cc1	0	-2	-4	6	18	-4	4
C=CCSc1n[nH]c(-c2ccc(OC)cc2)n1	0	3	-21	-1	7	-9	0
COC(=O)c1ccc(C2C(C#N)=C(N)Oc3cc(C)n(C)c(=O)c32)cc1 (stereo unspecified)	2	1	38	0	-8	14	2

Entries of single compounds, looked up by structure. Screens in order: Hck Nef HTS | Wee1 stabilizer | KLK5 inh | Runt-SMMHC FRET | 14-3-3 Bad PPI | Thrombin inh | Runt-CBFb FRET
COc1ccc(OC)c(-n2c(-c3cccc(O)c3)n[nH]c2=S)c1 across the screens: 0 | -2 | -2 | 17 | -8 | -4 | 11
COc1ccc(S(=O)(=O)Nc2cc(C(=O)NCCCN3CCOCC3)ccc2N2CCOCC2)cc1 across the screens: 21 | -1 | -2 | 4 | -14 | -4 | 0
C1=C(c2ccccc2)Nc2ccccc2N=C1c1ccccc1 across the screens: 0 | 2 | 6 | 0 | 6 | 18 | -1
C=CCNC(=O)C1CC(c2cccc(OC)c2)=NO1 (stereo unspecified) across the screens: 3 | 0 | -15 | 1 | 0 | 2 | 1

Returning to the listing with the 2 entries that preceded the break.
SMILES	Hck Nef HTS	Wee1 stabilizer	KLK5 inh	Runt-SMMHC FRET	14-3-3 Bad PPI	Thrombin inh	Runt-CBFb FRET
C=CCSc1n[nH]c(-c2ccc(OC)cc2)n1	0	3	-21	-1	7	-9	0
COC(=O)c1ccc(C2C(C#N)=C(N)Oc3cc(C)n(C)c(=O)c32)cc1 (stereo unspecified)	2	1	38	0	-8	14	2
Cc1cc(C)cc(N(CC(=O)N2CCC(C)CC2)S(C)(=O)=O)c1	3	0	-17	-7	1	-2	-3
CCNC(=O)CC1C(=O)N(c2ccc(C)cc2)C(=O)N1Cc1ccccn1 (stereo unspecified)	10	-1	-15	0	12	1	0
COc1ccc(NC(=S)Nc2cc(-c3ccccc3)[nH]n2)cc1Cl	0	2	-17	11	1	-7	14
CC(=O)c1c(OC(=O)c2ccccc2Br)ccc2c(C)cc(=O)oc12	5	2	-8	3	0	2	2
Cc1ccc(/C=N/n2c(-c3cccc(Cl)c3)n[nH]c2=S)o1	8	1	0	9	-2	-2	17
COC(=O)C1=C(C)Nc2nnnn2C1c1cccnc1 (stereo unspecified)	6	-1	-14	5	-8	-5	-4
O=C(CCC(=O)c1cccs1)NC(c1ccccc1)c1ccccc1	1	1	-3	1	-1	-3	-1
CCCCN1C(=O)Cc2c1nc(N)c1c(N)nc(N(CCC)CCC)c(C#N)c21	15	2	2	-2	24	1	103*
COCC(=O)Nc1cc(C(=O)Nc2cccc(C)c2C)ccc1Cl	0	0	-3	3	-5[fluorescence artefact?]	0	-1
COc1ccc(C(=O)CSc2nnc(CNC(=O)c3ccc(OC)cc3)n2C)cc1	0	-2	10	0	22	8	1
CCOC(=O)c1nnn(-c2nc(OC)nc(N3CCCCC3)n2)c1-c1ccccc1	1	-3	3	1	-5	-5	-4
COC(=O)c1ccc(C2CC(=O)NC3=C2C(=O)CCC3)cc1 (stereo unspecified)	2	-1	-6	-4	5	-1	-2
S=c1[nH]nc(COc2ccccc2)n1/N=C/c1cccnc1	1	0	-1	9	-15[fluorescence artefact?]	2	13
O=C(Oc1oc(-c2ccco2)nc1C=Nc1ccc(Cl)cc1)c1ccco1	1	0	-2	5	18[fluorescence artefact?]	7	1
Nc1nncn1C(=O)c1ccc(Cl)cc1Cl	4	-3	/	-2	-4	1	-2
CCC(=O)Nc1nc2ccccc2n1CCN(C)C	2	-2	-20	2	-4	14	0
CCOc1ccc(CN2CCNC(=O)C2CC(=O)NCCC2=CCCCC2)cc1 (stereo unspecified)	21	-1	-4	-6	-8	-8	-5
Nc1nc(/C=C/c2ccc(F)cc2)nc(-c2ccccc2O)n1	2	4	-7	1	1	3	-2
Cn1nnc2cc(C(=O)NC3CCCCC3)ccc21	1	-1	6	-2	4	1	0
COc1ccc(C(=O)Nc2cccnc2)cc1	-23	2	8	-1	-5	-6	-1
CC1=C(/C=C/C(C)=N\NC(=O)c2ccncc2)C(C)(C)CCC1	20	-3	-6	2	-14	-7	1
Fc1ccc(NC(=S)NN=C2CCCCCC2)cc1	1	-2	-12	5	1	-19	4
CC(=O)c1ccccc1OC(=O)c1ccc([N+](=O)[O-])o1	7	5	-10	0	1	-10	0
C1CCC(n2nnnc2CN2CCN(C3CCCC3)CC2)CC1	-1	-2	5	3	2	2	6
O=C(COc1ccccc1Cl)Nc1cccnc1	17	-2	/	-8	-6	-1	1

Just KLK5 inh and Runt-SMMHC FRET (two entries from above):
smiles | KLK5 inh | Runt-SMMHC FRET
CCNC(=O)CC1C(=O)N(c2ccc(C)cc2)C(=O)N1Cc1ccccn1 (stereo unspecified) | -15 | 0
COc1ccc(NC(=S)Nc2cc(-c3ccccc3)[nH]n2)cc1Cl | -17 | 11

Further compounds.
SMILES	Hck Nef HTS	Wee1 stabilizer	KLK5 inh	Runt-SMMHC FRET	14-3-3 Bad PPI	Thrombin inh	Runt-CBFb FRET
Fc1ccccc1OCCSc1ncnc2nc[nH]c12	26	4	0	-2	-10	-3	2
CCCN1CCN(C(=O)CCCNC(=O)Cn2cnc3sc(C)c(C)c3c2=O)CC1	0	1	-4	3	7	-6	0
CCCNC(=O)CCC(=O)Nc1ncc(-c2ccc(C)cc2)n1C	2	6	-12	-5	-3	7	0
CC1CC1C(=O)OCC(=O)NC(=O)NCc1ccco1 (stereo unspecified)	-15	3	3	-1	-7	-22	2
CC(C)c1ccc(NC(=O)CN(Cc2ccccc2)S(C)(=O)=O)cc1	16	-2	-5	-1	5[fluorescence artefact?]	-4	-6
CN1C(=O)CS(=O)c2ccc(C(=O)NC3CC3)cc21 (stereo unspecified)	0	-2	-17	-4	-6	-12	12
C/C(=N/NC(=O)CNC(=O)CCc1ccccc1)c1ccc(Cl)c(Cl)c1	11	-3	3	-1	1	2	2
O=C(CSc1nc(O)cc(=O)[nH]1)N1c2ccccc2CCc2ccccc21	28	-1	3	-2	-1	0	4
CC(=O)Nc1ccc2nc(NC(=O)COc3ccccc3Cl)sc2c1	21	1	-7	-2	-11	-1	2
CC12CNCC(C)(CN(C3(O)C(=O)Nc4ccc(Br)cc43)C1)C2=O (stereo unspecified)	25	-1	4	-6	-8	5	3
CCN(CC)C(=O)CNc1ccc(C(F)(F)F)cc1[N+](=O)[O-]	5	2	-9	-31	-2[fluorescence artefact?]	-4	-22
COc1ccc(/C=C/C(=O)OCC(=O)c2ccc3c(c2)NC(=O)CO3)c(OC)c1	2	2	-2	-1	4	4	-1
